Mtb MbtI inh = MbtI salicylate synthase inhibition; P9WFX0; hit rate 0.89% among 100,000; purified MbtI enzyme, fluorescence intensity read-out; inhibition, %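 (about 17 µg/mL by stock and volumes)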;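 active = above 50% in both replicates, above 80% if mildly self-fluorescent; inactive = the rest, strongly fluorescent compounds included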;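 also: 0% = mean of negative and 100% = mean of positive controls; one replicate is shown; some compounds called inactive have numbers as strong as hits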
PV pol inh = inhibitors of poliovirus RNA polymerase binding and polymerization; P03300; poliovirus polymerase elongation, fluorescence polarization; hits give low values; % elongation, % (compound at 16.7 µg/mL); hit rate 0.66% among 150,000; in the data active = % elongation below about 90%; also: some results filed as inactive read as strong as hits
Target sequence (P03300 1749-2209 limits assumed): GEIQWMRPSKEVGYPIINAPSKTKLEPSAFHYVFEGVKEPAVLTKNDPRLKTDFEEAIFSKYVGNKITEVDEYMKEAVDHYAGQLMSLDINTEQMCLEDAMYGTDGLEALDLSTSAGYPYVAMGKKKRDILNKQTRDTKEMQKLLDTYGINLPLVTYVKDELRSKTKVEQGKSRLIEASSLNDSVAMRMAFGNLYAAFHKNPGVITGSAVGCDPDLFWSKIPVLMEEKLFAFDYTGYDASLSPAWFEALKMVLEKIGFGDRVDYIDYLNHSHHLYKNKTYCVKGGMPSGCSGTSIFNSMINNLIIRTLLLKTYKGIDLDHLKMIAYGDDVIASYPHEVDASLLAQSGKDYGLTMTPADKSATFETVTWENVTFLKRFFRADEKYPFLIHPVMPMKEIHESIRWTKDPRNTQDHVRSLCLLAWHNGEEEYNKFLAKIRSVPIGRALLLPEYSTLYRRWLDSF
MenB inh = blocks the Mycobacterium tuberculosis MenB enzyme | P9WNP5 | MenB enzyme assay, absorbance read-out; some hits fall short of the stated cut | inhibition, %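 (about 12 µg/mL by stock and volumes)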 | hit rate 0.43% among 100,000;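 active = mean of two replicates above 30%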;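 also: 0% = no compound and 100% = wells with inactive enzyme; the first replicate is given; strong numbers were not always called active; inactives centre near -10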
Target sequence (P9WNP5 whole entry, looked up): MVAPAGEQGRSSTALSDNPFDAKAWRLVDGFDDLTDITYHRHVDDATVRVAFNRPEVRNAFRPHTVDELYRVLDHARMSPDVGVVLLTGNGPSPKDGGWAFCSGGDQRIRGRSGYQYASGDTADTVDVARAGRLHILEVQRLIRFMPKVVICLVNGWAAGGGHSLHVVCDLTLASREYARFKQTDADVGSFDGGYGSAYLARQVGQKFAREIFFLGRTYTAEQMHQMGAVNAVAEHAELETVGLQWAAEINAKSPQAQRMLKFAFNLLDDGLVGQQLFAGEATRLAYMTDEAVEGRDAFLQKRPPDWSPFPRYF
PV pol inh intensity = second read-out of PV pol inh, no call of its own (marks repeat the call); % elongation; measured here: total intensity read-out; formula for this scale not given here;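 total fluorescence in place of polarization; lower means less elongation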
Starred values were filed as active, the others as inactive; . = no result given; & = joins results of further samples.

Preview:
SMILES | Mtb MbtI inh | PV pol inh | PV pol inh intensity | MenB inh
COc1cc(OC)cc(C(=O)NC2C3CC4CC(C3)CC2C4)c1 (stereo not drawn) | -10 | 101 | 99 | .
Cc1cc(C)n2c(CNC(=O)c3ccc(S(=O)(=O)N4CCCCCC4)cc3)nnc2n1 | -5 | 101 | 106 | 2
O=C1CCC(C(=O)OCc2c(Cl)cccc2Cl)N1 (stereo not drawn) | -8 | 105 | 106 | -29
O=C1CSC(=S)N1c1ccc(F)c(F)c1 | -17 | 99 | 100 | -102
COC(=O)c1ccc(N=c2sc(C(=O)OC)cc(=O)n2Cc2ccccc2)cc1 | 10 | 101 | 104 | -24
Cn1c(C(C#N)C(=O)c2cccc(S(=O)(=O)N3CCc4ccccc43)c2)nc2ccccc21 (stereo not drawn) | 17 | 101 | 99 | -12
Cc1oc(C)c(C(=O)O)c1C | -4 | 29 | 217 | 2
O=C(N/N=C/c1ccccc1O)c1ccc(N2Cc3ccccc3C2)cc1 | 0 | 101 | 103 | -53
CC(C)c1ccc(NC2=CC(=O)CC(C)(C)C2)cc1 | 1 | 102 | 102 | 17
CCOc1ccc(-c2[nH]ncc2-c2csc(C)n2)c(O)c1 | 10 | 106 | 99 | -20
Cc1ccsc1C(=O)OCc1ccc(C#N)cc1 | 2 | 101 | 105 | 2
O=C(COC(=O)c1ccc2c(c1)OCCO2)NCc1ccccc1 | 7 | 101 | 94 | -43
COc1ccc(CNCCC2(O)CC(C)N(C)CC2C)cc1OC (stereo not drawn) | -22 | 102 | 101 | -4
COc1ccc(C)cc1NC(=O)C1CCN(S(=O)(=O)c2ccc(OC)c(OC)c2)CC1 | -4 | 103 | 103 | 16
c1ccc(OCCSc2nncn2-c2ccccc2)cc1 | 1 | 104 | 99 | 5
CC1CCCN(CNC(=O)c2ccccc2)C1 (stereo not drawn) | -14 | 100 | 100 | -4
CCOc1ccc(C=NC2=C(C#N)CCC2)cc1OC | 10 | 98 | 98 | 21

Main list, repeating the preview:
SMILES | Mtb MbtI inh | PV pol inh | PV pol inh intensity | MenB inh
COc1cc(OC)cc(C(=O)NC2C3CC4CC(C3)CC2C4)c1 (stereo not drawn) | -10 | 101 | 99 | .
Cc1cc(C)n2c(CNC(=O)c3ccc(S(=O)(=O)N4CCCCCC4)cc3)nnc2n1 | -5 | 101 | 106 | 2
O=C1CCC(C(=O)OCc2c(Cl)cccc2Cl)N1 (stereo not drawn) | -8 | 105 | 106 | -29
O=C1CSC(=S)N1c1ccc(F)c(F)c1 | -17 | 99 | 100 | -102
COC(=O)c1ccc(N=c2sc(C(=O)OC)cc(=O)n2Cc2ccccc2)cc1 | 10 | 101 | 104 | -24
Cn1c(C(C#N)C(=O)c2cccc(S(=O)(=O)N3CCc4ccccc43)c2)nc2ccccc21 (stereo not drawn) | 17 | 101 | 99 | -12
Cc1oc(C)c(C(=O)O)c1C | -4 | 29 | 217 | 2
O=C(N/N=C/c1ccccc1O)c1ccc(N2Cc3ccccc3C2)cc1 | 0 | 101 | 103 | -53
CC(C)c1ccc(NC2=CC(=O)CC(C)(C)C2)cc1 | 1 | 102 | 102 | 17
CCOc1ccc(-c2[nH]ncc2-c2csc(C)n2)c(O)c1 | 10 | 106 | 99 | -20

Two of the compounds above, with two lines to a compound.
Values run as follows: Mtb MbtI inh	PV pol inh	PV pol inh intensity	MenB inh
> O=C1CCC(C(=O)OCc2c(Cl)cccc2Cl)N1 (stereo not drawn)
 : -8	105	106	-29
> O=C1CSC(=S)N1c1ccc(F)c(F)c1
 : -17	99	100	-102

Continued:
SMILES | Mtb MbtI inh | PV pol inh | PV pol inh intensity | MenB inh
Cc1ccsc1C(=O)OCc1ccc(C#N)cc1 | 2 | 101 | 105 | 2
O=C(COC(=O)c1ccc2c(c1)OCCO2)NCc1ccccc1 | 7 | 101 | 94 | -43
COc1ccc(CNCCC2(O)CC(C)N(C)CC2C)cc1OC (stereo not drawn) | -22 | 102 | 101 | -4
COc1ccc(C)cc1NC(=O)C1CCN(S(=O)(=O)c2ccc(OC)c(OC)c2)CC1 | -4 | 103 | 103 | 16
c1ccc(OCCSc2nncn2-c2ccccc2)cc1 | 1 | 104 | 99 | 5
CC1CCCN(CNC(=O)c2ccccc2)C1 (stereo not drawn) | -14 | 100 | 100 | -4
CCOc1ccc(C=NC2=C(C#N)CCC2)cc1OC | 10 | 98 | 98 | 21
CCCCC/C=C\C/C=C\C/C=C\C/C=C\CCCCCC(=O)NCCO | -18 | 103&99 | 103&103 | 0
CC(C)N(Cc1nc(-c2ccccc2)no1)C(=O)C(c1ccccc1)c1ccccc1 | -4 | 100 | 104 | -44
CC1CC2OC(C)(C)OC2C(OC(=O)c2ccccc2)O1 (stereo not drawn) | . | 103 | 99 | 9
N/C(=N\O)c1ccc(N2CCN(c3ncccc3C(F)(F)F)CC2)nc1 | -4 | 97 | 104 | 13
Cc1cc(C)nc(SCC(=O)OCC(=O)c2cc(C)n(C)c2C)n1 | 0 | 105 | 105 | -14
COc1ccc(NC(=O)c2nc(S(C)(=O)=O)ncc2Cl)cc1Cl | 88* | 102 | 104 | -9
COc1ccc(NC(C)=S)cc1OC | -4 | 102 | 104 | -13
O=C(CCc1c[nH]c2ccccc12)OCc1nnc(-c2ccccc2)o1 | -24 | 100 | 102 | -62
O=C(/C=C1\Sc2ccccc2NC1=O)NCc1ccco1 | 0 | 103 | 105 | -23
CCc1nc(N2CCCCC2)c2sc(=S)n(-c3ccccc3)c2n1 | . | 105 | 107 | -14
Cc1ccc(NC(=S)NC(=O)CC(C)C)cc1 | -9 | 102 | 104 | -25
CC1=CC(C)C(COC(=O)Nc2ccccc2)C(C)C1 (stereo not drawn) | -1 | 102 | 101 | 5
C=C(C)n1c(=O)n(Cc2ccc(C)cc2)c2ccccc21 | 4 | 104 | 102 | -9
O=C(NCCc1ccccc1)C1c2ccccc2-c2ccccc21 | . | 109 | 106 | -27
COCCn1cc(C(=O)NC2CCCCCC2)c2c3ccccc3n(C)c2c1=O | -17 | 100 | 100 | -25
COc1cccc(-c2c(C(N)=O)nnc3cc(-c4ccccc4)nn23)c1 | -15 | 102 | 107 | -17
Cn1c(-c2nonc2NC(=O)c2cccs2)nc2ccccc21 | . | 104 | 96 | 1
O=C(CSc1nnc(-c2c[nH]c3ccccc23)o1)NC1CC1 | 7 | 103 | 103 | -18
CCCCN(C)C(=O)C1CCN(Cc2ccc(OCc3ccccc3)c(OC)c2)CC1 | 5 | 102 | 102 | -43
COc1ccc(N2C(N)=C(C#N)C(c3ccc(O)c(OC)c3)C3=C2CCCC3=O)cc1 (stereo not drawn) | 1 | 103 | 111 | -21
CCOC(=O)c1c(C)[nH]c(N=Nc2ccccc2)c1C | -6 | 97 | 98 | -218
O=C(Cc1nc(-c2cccs2)no1)Nc1cccc(C(F)(F)F)c1 | -13 | 105 | 105 | 1
Cc1ccc(C)n1-c1sccc1C(=O)OCc1cc(=O)n2c3c(sc2n1)CCCC3 | -5 | 105 | 107 | -7
Cc1ccc2[nH]c(=S)n(C3CC4C=CC3C4)c(=O)c2c1 (stereo not drawn) | -43 | 105 | 113 | 6
C=CCn1c(SC)nc2sc(CC)cc2c1=O | 4 | 103 | 101 | -59
COCc1cc(OC(=O)N(C)C)nc2c1c(C)nn2C | 90 | 108 | 111 | -13
N#Cc1ccc(Cn2c(CC3CCS(=O)(=O)C3)nc3ccccc32)cc1 (stereo not drawn) | 6 | 100 | 98 | -20
Cc1cccc(NC(=O)CN(CC(=O)Nc2cccc(C)c2C)Cc2ccco2)c1C | -1 | 105 | 106 | -5
O=C(NC(=O)c1ccccc1F)NC1CC1 | -1 | 101 | 96 | 5
Cc1ccc(CSCCC(=O)O)cc1 | -11 | 102 | 107 | -6
Cc1ccc(CSCC(=O)N2CCN(c3ccccc3)CC2)cc1 | -5 | 102 | 108 | 4
COc1cc2c(cc1OC)C(Nc1ccc(Br)cc1)=NC(C)(C)C2 | -4 | 102 | 97 | -23
COC(=O)C1=C(C)NC2=C(C(=O)CC(c3ccco3)C2)C1c1cccc(OC)c1 (stereo not drawn) | 83 | 104 | 103 | -40
COc1ccc(C(=O)COC(=O)c2ccc(S(=O)(=O)N(C)C)cc2)cc1 | -8 | 101 | 95 | -19
CCOC(=O)C1CCN(C(c2cccc(Cl)c2)c2c(NC(C)=O)sc3c2CCCC3)CC1 (stereo not drawn) | 0 | 101 | 105 | -2
CCc1ccc(CNC(=O)COc2cc(=O)n(C)c3ccccc23)cc1 | 5 | 102 | 99 | 2
Cn1c(C(=O)NCc2ccccc2)cc2oc3ccccc3c21 | 136 | 102 | 99 | -14
O=C(/C=C/c1cccs1)Nc1cccc(C(F)(F)F)c1 | 4 | 101 | 97 | .
CC(=O)OC1C2CCC1C(N1CCCCC1)CC2 (stereo not drawn) | . | 102 | 104 | -15
CN(C)S(=O)(=O)c1cccc(C(=O)Oc2ccc3c(c2)OCO3)c1 | 3 | 99 | 94 | -11
CN1CCSC1=Nc1cccc(C(F)(F)F)c1 | -1 | 101 | 103 | 3
COc1ccc(-c2c(C)nn3c(N)c(C#N)cnc23)cc1OC | -4 | 100 | 102 | 3
Cc1ccc(-c2cc3ccccn3c2)cc1 | -146 | 106 | 98 | 1

(cont.)
SMILES | Mtb MbtI inh | PV pol inh | PV pol inh intensity | MenB inh
CC(OC(=O)c1cc(Cl)c(O)c(Cl)c1)C(=O)N1CCCCC1 (stereo not drawn) | -9 | 104 | 109 | -21
CN(C)c1nc(N(C)C)nc(N(C)C)n1 | -16&-9 | 102&101 | 99&102 | -10&6
O=C1c2ccc(F)cc2C(=O)N1C1CCCCCCC1 | . | 101 | 97 | 3
Oc1ccccc1CNCc1ccccn1 | 0 | 101 | 104 | -72
Cc1cc(I)ccc1NC1CCOC1=O (stereo not drawn) | 1 | 104 | 110 | -13
COC(=O)c1ccc(OC2OCCOC2Oc2ccc(C(=O)OC)cc2)cc1 (stereo not drawn) | -8 | 104 | 100 | -5
Cc1cnc(C(=O)OCC(=O)c2c[nH]c3ccccc23)cn1 | -1 | . | . | -18
O=C(Cn1cc(C(=O)c2ccccc2)c2ccccc21)NCc1ccco1 | 12 | 99 | 102 | 8
Cc1ccc(S(=O)(=O)N2CCc3ccccc3C2)cc1C(N)=O | -3 | 104 | 100 | -64
CC(=O)N(Cc1nc(-c2ccccc2)no1)C(C)C | -10 | 103 | 101 | -57
O=C(Nc1ccccc1)OCc1cc(-c2ccccc2)c(C(F)(F)F)s1 | -4 | 106 | 117 | -39
Cc1c(Cl)cccc1NC(=O)C1CC2CCCC(C1)C2=O (stereo not drawn) | -1 | 100 | 101 | -30
O=C(Cn1c(=O)n(Cc2ccc(C(=O)NC3CCCC3)cc2)c(=O)c2ccccc21)c1ccccc1 | 6 | 104 | 106 | -21
COC(=O)Nc1c(C)n(C)n(-c2ccccc2)c1=O | . | 106 | 110 | 5
O=C(OCC(=O)N1CCCCC1)c1c(Cl)cccc1Cl | -10 | 100 | 112 | -8
O=c1[nH]c2ccc(Cl)cc2c(-c2ccccc2)c1N1CCN(CCO)CC1 | . | 104 | 93 | -12
CNC(=S)NCCc1cc2c(OC)ccc(OC)c2[nH]c1=O | 10 | 102 | 100 | -19
Cc1ccc(C(=O)NCC(c2ccco2)N2CCCC2)cc1 (stereo not drawn) | -7 | 101 | 103 | 8
O=C(CSc1ccccn1)N(C1CCCCC1)C1CCS(=O)(=O)C1 (stereo not drawn) | 14 | 98 | 98 | 1
Cc1ccc(C)n1-c1sc2c(c1C#N)CCCC2 | 4 | 105 | 105 | 0
Cc1ccc2sc(-c3ccc(NC(=O)C(C)C)cc3)nc2c1 | . | 102 | 103 | 6
COc1ccc(-c2[nH]c(=S)nc(N)c2-c2nc3ccccc3n2C)cc1 | 16 | 98 | 107 | -36
O=C(CCn1c(=S)[nH]c2ccsc2c1=O)N1CCN(c2ccccc2)CC1 | 10 | 104 | 108 | -6
Cc1nnc(C)n1/N=C/c1ccccc1C(F)(F)F | 0 | 102 | 99 | .
CCCCSc1nc2c(cnn2-c2ccccc2)c(=O)[nH]1 | 9 | 103 | 101 | -28
NC(=O)C1CCN(C(=O)CSc2ccc3ccccc3c2)CC1 | 8 | 99 | 103 | .
Cc1ccc(Oc2cc(C#N)c3ccccc3n2)c(-n2nc3ccccc3n2)c1 | 6 | 105 | 99 | 7
CCCNC(=O)c1ccc(Cn2nc(-n3cccc3)c3c(C)cc(C)nc32)cc1 | 124 | 101 | 102 | -14
Cc1cccc(C)c1NC(=O)C(NC(=O)CC1NC(=O)NC1=O)c1ccccc1 (stereo not drawn) | -4 | 101 | 102 | 5
O=C(CC1SC(=Nc2ccc(O)cc2)NC1=O)c1ccccc1 (stereo not drawn) | 5 | 103 | 103 | -35
CCOC(=O)c1c(NC(=O)CSc2ncccn2)sc2c1CCC2 | . | 105 | 110 | 3
CCS(=O)(=O)N1CCC(c2nc3ccccc3s2)CC1 | -5 | 103 | 104 | -2
Cc1ccccc1CNCc1cccnc1 | . | 112 | 119 | 4

Compound activity (PubChem BioAssay)
